INS promoter inh = inhibitors of insulin promoter-driven GFP, primary screen, imaging, TRM-6 cells (human fetal islet line), eGFP reporter, cell count | reporter expression induced with tamoxifen | inhibition, % at 2 µM | actives 0.9% (n = 130,000);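 active = inhibition above the mean plus 3 SD, with well images judged a real hit on visual review, cut at about 60% in these data, passing the limit was not always enough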
PKD1 inh = inhibitors of human PKD1 kinase, biochemical, fluorescence polarization. Serine/threonine-protein kinase D1 (Homo sapiens), Q15139. PKD1 kinase fluorescence polarization assay. actives 0.056% (n = 200,000). inhibition, %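 (about 10 µM by stock and volumes)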;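 active = inhibition of 50% or more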;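 note: controls were vehicle for no effect and a reference inhibitor for full effect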
GALR2 agonist = GALR2 receptor agonists, primary screen, cell-based; Galanin receptor type 2 (Homo sapiens), O43603; GALR2-expressing cells, agonist activation read-out; activation, %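 (tested at 5 µM)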; actives 0.48% (n = 140,000);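 active = above mean plus 3 SD of all compounds, about 5% in these data, not always enough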;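 note: 0% = vehicle buffer wells and 100% = reference agonist at full effect; tested in CHO reporter cells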
Target sequence (O43603 whole entry, looked up): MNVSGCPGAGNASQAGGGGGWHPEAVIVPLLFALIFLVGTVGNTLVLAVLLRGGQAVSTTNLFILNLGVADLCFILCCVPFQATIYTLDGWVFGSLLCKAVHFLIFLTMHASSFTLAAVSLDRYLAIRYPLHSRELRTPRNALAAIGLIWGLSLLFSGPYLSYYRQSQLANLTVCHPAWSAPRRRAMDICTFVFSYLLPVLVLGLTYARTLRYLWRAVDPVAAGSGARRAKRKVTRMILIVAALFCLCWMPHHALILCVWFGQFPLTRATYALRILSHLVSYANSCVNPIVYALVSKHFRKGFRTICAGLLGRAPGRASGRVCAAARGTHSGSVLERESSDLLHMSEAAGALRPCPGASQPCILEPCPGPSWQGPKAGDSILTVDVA
HSV augment = enhancers of HSV replication in host cells, fold increase, host cell viability. HSV replication augmentation in cells. maximum fold increase. AID 1956, 2009. actives 0.005% (n = 220,000);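 active = peak rise of 1.5-fold or more in the series; tested in PC3 cells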;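 note: first round at 10 µM; read as green reporter fluorescence; hits show the peak of a series up to 25 µM; 1 = signal of infected wells without compound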
RGS16-Gao = modulators of RGS16 binding to Galphao, primary screen, biochemical, human proteins, multiplexed bead flow cytometry; Regulator of G-protein signaling 16 (Homo sapiens) + Guanine nucleotide-binding protein …; bead-based flow cytometry RGS16-Galphao binding, fluorescence; actives lie on both sides; actives 0.38% (n = 220,000); binding response (% of control), % at 10 µM; AID 1441, 2008;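 active = below 25% or above 175%, edge rows of some plates excepted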;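 note: Galphao activated by GDP with aluminum fluoride before binding; 100% = wells without compound and 0% = beads without RGS; some results beyond the cut were filed as inactive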
Target sequence (O15492 whole entry, looked up): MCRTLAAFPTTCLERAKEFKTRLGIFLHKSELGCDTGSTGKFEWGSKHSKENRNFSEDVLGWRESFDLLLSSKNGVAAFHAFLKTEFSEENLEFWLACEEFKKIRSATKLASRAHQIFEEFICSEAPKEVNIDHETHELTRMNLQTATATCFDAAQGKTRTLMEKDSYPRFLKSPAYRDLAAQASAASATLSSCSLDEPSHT
Target sequence (P09471 whole entry, looked up): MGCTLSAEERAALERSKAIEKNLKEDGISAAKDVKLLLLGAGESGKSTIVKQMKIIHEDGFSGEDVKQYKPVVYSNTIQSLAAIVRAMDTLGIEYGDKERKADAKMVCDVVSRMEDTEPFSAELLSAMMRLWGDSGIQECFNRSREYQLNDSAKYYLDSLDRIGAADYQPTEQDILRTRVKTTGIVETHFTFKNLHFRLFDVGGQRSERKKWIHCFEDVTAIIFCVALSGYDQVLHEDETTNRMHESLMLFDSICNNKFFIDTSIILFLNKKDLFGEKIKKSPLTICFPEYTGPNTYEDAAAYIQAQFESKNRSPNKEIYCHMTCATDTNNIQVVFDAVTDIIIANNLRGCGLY
INS promoter inh cell count = further read-out of INS promoter inh, marked with its call; normalized cell count, %; measured here: cell count, toxicity; reference of the scale not given here;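 cells exposed to compound for 48 h; stained nuclei by imaging scaled within each plate; lower means fewer cells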
HSV augment primary fold = recorded beside HSV augment, whose call it bears; fold increase; compound at 10 µM; measured here: primary screen fold increase 10 uM; tested in PC3 cells;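 GFP signal in the first replicate; 1 = infected wells without compound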
Starred values were filed as active, the others as inactive; i = inactive; / = not tested or not shown.

Results follow in this order: INS promoter inh	INS promoter inh cell count	PKD1 inh	GALR2 agonist	HSV augment	HSV augment primary fold	RGS16-Gao
CCCCN(C)C(=O)c1cn(CC)c2ccc(S(=O)(=O)N(C)C)cc2c1=O
→ /	/	1.4	-2.5	i	0.83	81.8
COc1ccc(C(=O)NCc2nnc(SCC(=O)Nc3ccccc3F)o2)cc1
→ 7.7	133.5	2.2	/	i	0.94	100.4
Clc1ncc(CN2CCN(c3ccccc3)CC2)s1
→ -25.0	100.4	-2.0	/	i	0.94	104.5
Cc1cc(C)n2nc(C(=O)Nc3ccc4c(c3)OCO4)nc2n1
→ -76.9	126.6	-5.6	-2.5	i	1.14	100.8
Cc1ccc2occ(C(c3nnnn3C3CCCC3)N3CCN(C(=O)c4ccco4)CC3)c(=O)c2c1 (configuration not stated)
→ /	/	11.9	1.3	i	0.76	96.2
COc1ccc(OCC(=O)NNC(=O)C(=O)Nc2ccc(C)cc2)cc1
→ 34.6	135.1	-0.5	-1.3	i	0.94	59.5
COc1ccc(S(=O)(=O)Nc2c(C)ccc3nsnc23)cc1OC
→ -14.8	98.4	8.0	-1.5	i	0.87	105.4
Cc1ccc(NC(=O)CN(C)C(=O)COc2cccc3cccnc23)cc1
→ 23.1	125.9	2.7	0.1	i	0.93	106.9
CCOc1cc(C(=O)NC(=S)Nn2cnnc2)cc(OCC)c1OCC
→ 0.0	128.1	-0.6	/	i	1.1	113.1
CCOc1ccc(/C=C\C(C)=N\O)cc1
→ -53.3	126.2	-17.8	-2.4	i	0.9	97.0
O=C(CSc1nc2ncc(Cl)cc2[nH]1)c1ccc2c(c1)OCO2
→ /	/	/	/	i	0.98	103.1
CC(C)Nc1nc(NC(C)C)nc(Nn2cnnc2)n1
→ /	/	0.8	/	i	1.01	98.3
Cc1cccc(C(=O)OCc2cnc(Cl)s2)c1
→ 12.9	111.1	1.0	-0.1	i	0.95	94.8
COc1ccc(C)cc1S(=O)(=O)Nc1ccncc1
→ /	/	-4.3	/	i	0.94	100.1
CCOC(=O)C1CCCN(c2nc3ccccc3nc2C(C#N)C(=O)OC(C)COC)C1 (configuration not stated)
→ /	/	-7.8	1.1	i	1.12	104.6
Cc1[nH]n(-c2ccccc2)c(=O)c1CCO
→ /	/	-2.0	/	i	1.22	97.3
CCOCCCNC(=O)c1c[nH]c2cc(OC)ccc2c1=O
→ /	/	-12.9	/	i	0.95	99.5
Cc1nnc(N(C)C(=O)c2cccnc2)s1
→ -10.8	132.3	-5.5	-0.4	i	1.02	105.0
CN(c1ccccc1C(=O)O)S(C)(=O)=O
→ -9.1	71.3	-10.7	-1.9	i	0.74	102.6
O=C(c1cccs1)N1CCCC1
→ 43.8	80.8	-3.3	-1.8	i	0.977	98.4
O=C1[C@H]2[C@H](ON3CCCC[C@H]23)C(=O)N1c1cccc(C(F)(F)F)c1
→ /	/	-4.5	/	i	0.95	98.5
CC(C)(C)C(=O)Nc1c(Br)c(C2CC2)nn1-c1ccccc1
→ /	/	/	/	i	0.94	102.1
Cc1cc(C)n(-c2ccc(F)cc2CN2CCN(C3CCCC3)C(CCO)C2)n1 (configuration not stated)
→ /	/	-2.0	/	i	0.76	101.5
O=C(Nc1cc(SCC(O)CO)cc([N+](=O)[O-])c1)c1ccc(-n2cnnn2)cc1 (configuration not stated)
→ -5.9	93.9	-2.7	/	i	0.95	97.3
COc1ccc(Cn2nnnc2C(c2cc3ccc(OC)cc3[nH]c2=O)N2CCC(C)CC2)cc1 (configuration not stated)
→ 58.3	78.2	-1.8	0.9	i	1.09	114.0
CCSc1nc2c(cnn2-c2ccccc2)c(=O)n1N
→ /	/	/	/	i	1.09	98.9
CCn1c2ccccc2c2cc(NS(=O)(=O)c3ccc(C)cc3)ccc21
→ 32.1	84.0	-5.6	-1.6	i	0.99	100.0
Cc1ccc2nc3c(cc2c1)c(NC(=O)C1CCCO1)nn3CC(C)C (configuration not stated)
→ 31.0	112.8	-8.9	4.0	i	0.92	91.4
COc1ccc(-c2ccc(SCC(=O)Nc3nnc(C)s3)nn2)cc1
→ -9.1	115.9	-5.9	/	i	1	121.5
Cc1ccccc1Oc1nc2ccccc2n2cnnc12
→ -7.1	34.8	-2.3	/	i	0.92	102.7
Cc1cc(C(C)(C)C)ccc1OCCN1CCCC1
→ /	/	9.3	-0.2	i	0.983	129.2
COc1ccc(CC(=O)NCc2n[nH]c(=S)n2-c2cccc(Cl)c2)cc1
→ 50.0	111.7	1.3	/	i	1.15	92.4
CC1C/C=C/C=C/C=C/C=C/C(O[C@@H]2O[C@H](C)[C@@H](O)[C@H](N)[C@@H]2O)CC2OC(O)(CC(O)CC3OC3/C=C/C(=O)O1)CC(O)C2C(=O)O (some centres not stated)
→ -87.0	125.5	-9.8	-1.0	/	/	/
COc1ccc(-c2nc3ccccc3o2)cc1NC(=O)CSc1ccc(Cl)cc1
→ /	/	14.7	-0.7	i	1.06	102.2
O=C(Nc1ccc(CN2CCOCC2)cc1)c1ccc(-c2cccc(Cl)c2)o1
→ 37.1	63.9	86.0*	-0.1	i	0.79	170.8
CCCCCC(=O)NCC(C)NC(=O)CCCCC (configuration not stated)
→ 21.4	81.8	4.7	-0.9	i	0.95	100.5
O=C(NCCN1CCOCC1)c1ccc(-c2ccccc2)cc1
→ -4.5	87.7	-8.2	-2.5	i	0.87	102.3
COc1ccc2[nH]c(C)c(CCNC(=S)Nc3cc(C)cc(C)c3)c2c1
→ 41.5	141.7	-9.4	-1.7	/	/	100.2
Cc1ccc(C(=O)COC(=O)CCC(=O)Nc2cc(Cl)ccc2Cl)cc1[N+](=O)[O-]
→ /	/	-7.1	-3.1	i	0.87	79.2
Cc1nc2c3ccccc3nc(SCC(=O)N3CC(C)CC(C)C3)n2n1 (configuration not stated)
→ -15.5	130.4	-1.8	-1.1	/	/	102.8
COc1cc(NC(=O)C2CCCCC2)c(OC)cc1NC(=O)CN1CCCCC1
→ /	/	6.7	-1.2	i	0.86	96.8
Cc1ccc(OCc2nnc(SCC(=O)Nc3ccc4c(c3)OCCO4)n2Cc2ccco2)cc1
→ -5.6	83.2	-16.9	-1.5	i	0.97	100.8
COc1cc(OC)c(C2=NOC(C(=O)Nc3c(C)n(C)n(-c4ccccc4)c3=O)C2)cc1Cl (configuration not stated)
→ 27.8	90.1	5.2	/	i	1.19	96.0
Cc1c(NC(=O)CSc2nnc(COc3ccccc3)n2-c2ccccc2)c(=O)n(-c2ccccc2)n1C
→ -32.3	97.2	-2.7	-2.5	i	1.02	104.3
CCn1cc(C(=O)Nc2ccc(F)c(F)c2)cn1
→ 7.1	97.6	4.9	-2.3	i	1.07	98.8
COc1cc(C(=O)OCn2nnc3ccccc3c2=O)cc(OC)c1OC
→ -43.5	109.9	-5.4	-0.5	i	0.87	100.3
S=C(Nc1ccc(Cc2ccncc2)cc1)Nc1cccc(Cl)c1
→ /	/	-2.9	/	i	1.01	99.2
COC(=O)c1sc2ccccc2c1-n1cccc1C(=O)C(=O)Nc1ccc(F)cc1
→ 54.0	38.9	-7.2	-2.7	i	0.9	100.0
CCc1c(C)nc(SC(C(=O)O)c2ccccc2)c(C#N)c1C (configuration not stated)
→ /	/	17.2	-1.4	i	0.96	103.5
CCCCn1c(SCC(N)=O)nc2c(sc3ccccc32)c1=O
→ 0.0	93.6	-12.2	-2.0	i	0.85	105.5

Later entries
Results follow in this order: INS promoter inh	INS promoter inh cell count	PKD1 inh	GALR2 agonist	HSV augment	HSV augment primary fold	RGS16-Gao
N#Cc1nc(COc2ccccc2)oc1N1CCN(Cc2ccccc2)CC1
→ /	/	-5.5	-1.6	i	0.99	99.8
CCOCCCNC(=O)Cc1cc(=O)[nH]c(=O)[nH]1
→ 30.0	139.6	-4.3	-2.2	i	0.92	99.6
COc1ccc(NC(=O)CN2C(=O)C(c3ccccc3)=NC23CCCCCC3)cc1OC
→ 54.8	82.1	-7.2	-2.1	i	0.97	31.6
CC(=O)NS(=O)(=O)c1ccc(NC(=O)C2C3C=CC(C3)C2C(=O)O)cc1 (configuration not stated)
→ /	/	9.4	0.4	i	0.87	103.2
CCN1CCN(c2ccc(NC(=O)c3cccc(F)c3)cc2Cl)CC1
→ /	/	-6.8	/	i	0.75	98.9
CSCCC(=O)N1C(C)CCCC1C(=O)O (configuration not stated)
→ -12.2	107.0	-1.5	-1.7	i	0.89	105.7
Cn1c(=O)[nH]c(=O)c2c1nc(N1CCC(Cc3ccccc3)CC1)n2Cc1ccccc1
→ /	/	-1.6	-3.5	i	0.82	101.7
COc1ccc(C2CC(c3ccc4ccccc4c3)=NN2C(=O)CNC2CCCCC2)cc1 (configuration not stated)
→ 6.7	58.7	-5.6	/	i	0.86	203.8
COc1ccc(OCC(O)CNS(=O)(=O)c2ccc(C)cc2)cc1 (configuration not stated)
→ /	/	/	/	i	1.06	98.8
S=c1[nH]nc(-c2ccc(Cl)cc2)n1-c1ccc2c(c1)OCCO2
→ 10.8	67.8	2.3	-0.2	i	0.97	97.7
COc1ccc(C(CC(=O)N2CCCC(C)C2)c2c(OC)cc(OC)c3c(-c4ccccc4)cc(=O)oc23)cc1 (configuration not stated)
→ /	/	/	/	i	0.81	95.4
O=C(NCc1ccc(Cl)cc1)c1ccc(CNc2c(N3CCOCC3)c(=O)c2=O)cc1
→ /	/	/	/	i	0.96	100.3
COCCNC(=O)C(c1ccc(C)o1)N(Cc1cccs1)C(=O)c1snc(C(N)=O)c1N (configuration not stated)
→ -20.7	96.3	3.0	-2.5	i	0.85	102.2
CC(C)(C)c1cc(N)on1
→ 14.3	109.5	2.6	-1.4	i	1.07	51.7
Cc1ccc(S(=O)(=O)N(CC(=O)NC2CCCC2)c2cccc(C)c2)cc1
→ -73.3	128.2	0.8	-1.0	i	0.96	106.5
COC(CNC(=O)c1ccc2c(c1)ncn2-c1ccc(F)c(F)c1)OC
→ 0.0	154.3	-0.8	/	i	0.92	102.8
CC(=O)c1cn(CCC(C)C)c(=O)[nH]c1=O
→ -7.7	112.1	-6.1	0.6	i	1.04	102.2
CC(C)(C)c1ccc(/C=C/C(=O)Nc2ccncc2)cc1
→ 11.5	88.1	-13.5	-2.0	i	0.98	163.9
CCc1nnc(NS(=O)(=O)c2ccc(N3C(=O)c4ccc(C(=O)O)cc4C3=O)cc2)s1
→ 5.3	79.9	3.3	/	i	1.14	98.4
CC1(C)C(=O)NCCN1C(=O)CCC(=O)O
→ -205.6	90.6	-3.9	-0.8	i	0.92	41.0
O=C(O)COc1ccc(/C=N/NC(=O)COc2nsnc2N2CCOCC2)cc1
→ /	/	-3.5	/	i	0.64	100.6
CCOc1nc(NC(=O)NS(=O)(=O)Oc2cccc(Cl)c2)nc(-c2ccccc2)n1
→ 77.8*	59.2*	0.4	-1.5	i	0.97	105.2
Cc1csc(SCC(=O)Nc2ccc3c(c2)OCCO3)n1
→ /	/	8.3	/	i	1.05	100.0
Cn1nc(Oc2nc(N3CCOCC3)nc(N3CCOCC3)n2)ccc1=O
→ 9.4	161.0	-6.4	-0.7	i	1	-35.1
COc1ccc(N=C(C)C2=C(O)CSC2=O)cc1
→ 9.4	132.4	-2.1	-3.4	i	0.95	85.1
CS(=O)(=O)N(Cc1ccco1)CC(O)Cn1cc(C=O)c2ccccc21 (configuration not stated)
→ 13.0	101.2	-1.5	-2.0	i	0.94	106.5
CC1(c2ccccc2)CC(C)(C)N(C(=O)CSc2nnc(N)s2)c2ccccc21 (configuration not stated)
→ 26.1	125.0	-0.5	-0.1	i	0.91	103.8
O=C(O)C=C1C2CC3CC(C2)CC1C3
→ /	/	-4.1	-1.2	i	1.05	102.4
Cc1ccc(CNC(=O)C(C)C2Sc3ccccc3NC2=O)cc1 (configuration not stated)
→ /	/	/	/	i	0.92	103.4
CC1(C)CC(=O)C(N=Nc2cc(Cl)c(Cl)c(Cl)c2)=C(O)C1
→ -22.0	83.1	-2.0	0.0	i	0.843	104.9
CCCc1cc(=O)n2[nH]c(C)c(-c3ccccc3)c2n1
→ /	/	-0.2	-1.8	i	1.05	111.9
CN1CCC(N2CCCC(C(=O)O)C2)CC1 (configuration not stated)
→ 6.2	126.9	1.0	-3.2	i	1.08	120.0
O=C(COc1ccc(Cl)cc1)N1CCN(C(=O)c2cccs2)CC1
→ 7.1	125.7	2.8	/	i	1	98.0

This is a random part of the collection. About 1.3% of those tested had a hit in this group.
